LASV entry inh – blocks Lassa virus binding to or entry into cells. actives 1.2% (n = 300,000). Potency, µM (titrated, usually from 37.9 µM), for inactives: at the top dose activity change, negative = inhibition, hits mostly inhibitors. Lassa virus pseudotype entry inhibition, cell reporter; control for the full effect not named in the record; active means well fitted inhibition curve with a large enough effect; inconclusive means small, poorly fitted or top-dose-only effect, or effect the other way; inactive means flat fitted curve, though single readings scatter; tested in HEK293 cells; note: % is set by controls: 0 for no effect and ±100 for the full control effect; nearly all actives have a fitted effect of over 50% in size; luciferase read-out
MARV entry inh – Marburg virus entry inhibition; Potency, µM (highest dose often 37.8 µM), for inactives: top-dose activity change, negative = inhibition, actives largely listed as inhibitors; actives 1.8% (n = 300,000); Marburg virus pseudotyped entry inhibition, cell reporter; control for the full effect not named in the record; about a third of the inactives were read at about 46 µM; active = well fitted inhibition curve with a large enough effect; inconclusive = small, poorly fitted or top-dose-only effect, or effect the other way; inactive = flat fitted curve, though single readings scatter; tested in HEK293 cells; about a fifth of its hits are not listed in these tables; note: % is set by controls: 0 for no effect and ±100 for the full control effect; luciferase read-out
NS1 function inh – influenza NS1 inhibition; AID 2326; Potency, µM (titrated, usually from 46.1 µM), inactives show top-dose activity, positive = more growth; actives 0.4% (n = 270,000); S. cerevisiae slowed by influenza A NS1, growth recovery by OD600; note: actives are rising curves; nearly all actives have a fitted effect of over 50% in size
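In this qHTS, NS1 from influenza A is expressed in budding yeast, where it slows growth. Cells are switched from glucose to 2% galactose medium (pH 6.0, -URA), treated with compound, and growth recovery is read at OD600.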
Cruzain inh Det – blocks cruzain activity in presence of Triton detergent | AID 1478 | actives 0.43% (n = 200,000) | Potency, µM, for the others: max response, negative = inhibition, most hits filed as inhibitors | P25779 | purified cruzain, Z-FR-AMC fluorescence, 0.01% Triton; active = well fitted curve in the direction sought with a large enough effect; inconclusive = small, poorly fitted or top-dose-only effect, or another doubt; inactive = no such curve, though single readings can be large; an effect the other way counts as inactive or inconclusive;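 note: plate controls were neutral wells for no effect and buffer without enzyme for full effect; nearly all actives have a fitted effect of over 40% in size; top concentration of the series not given in the record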
Target sequence (P25779 123-467 limits assumed): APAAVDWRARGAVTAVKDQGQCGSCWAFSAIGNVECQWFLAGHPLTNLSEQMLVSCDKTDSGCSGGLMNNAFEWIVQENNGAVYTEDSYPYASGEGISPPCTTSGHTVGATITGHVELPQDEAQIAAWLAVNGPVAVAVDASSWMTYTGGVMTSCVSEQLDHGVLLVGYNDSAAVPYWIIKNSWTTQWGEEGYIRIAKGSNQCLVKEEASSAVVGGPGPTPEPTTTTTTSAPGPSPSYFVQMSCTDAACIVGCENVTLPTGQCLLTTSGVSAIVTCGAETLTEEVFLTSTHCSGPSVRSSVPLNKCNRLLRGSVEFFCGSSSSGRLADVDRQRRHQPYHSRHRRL
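Sodium acetate buffer (100 mM, pH 5.5) containing 5 mM DTT and 0.01% Triton X-100 hosted 1.5 nM cruzain and test compound for 15 min at room temperature. Cleavage of 2 uM Z-FR-AMC was then tracked by fluorescence.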
SARS PLpro yeast – blocks SARS-CoV papain-like protease in a yeast assay. S. cerevisiae expressing SARS-CoV PLpro, growth rescue; control for the full effect not named in the record. Potency, µM (series often up to 32.9 µM), without a hit: top-dose activity, positive = growth rescue. actives 0.19% (n = 330,000). AID 485353; note: 0% is about no effect; nearly all actives have a fitted effect of over 55% in size; growth read by luminescence after 48 h
RE007 growth inh – less growth of the S. pombe RE007 Vpr strain. AID 651644. actives 0.21% (n = 360,000). S. pombe RE007 Vpr strain, BacTiter-Glo ATP luminescence, 24 h; control for the full effect not named in the record. Potency, µM (top dose mostly 92.2 µM), for the others: at the top dose activity change, negative = less growth; active = well fitted falling curve with a large enough effect; inconclusive = small, poorly fitted or top-dose-only effect; inactive = no such curve, though single readings can be large or run the other way;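 note: % is set by controls: 0 for no effect and ±100 for the full control effect; nearly all actives have a fitted effect of over 50% in size; the assay follows cell death caused by Vpr and the record does not say whether a fall means rescue or toxicity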
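Fission yeast strain RE007, carrying one chromosomally integrated HIV-1 vpr copy, was seeded at OD 0.01 in PMG+AL medium with 23 nL pinned compound. After 24 h at 30 °C and 99% humidity, viability was read by BacTiter-Glo luminescence.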
StopGo reporter – lowers the luciferase signal of an FMDV 2A StopGo reporter | human cells with a luciferase reporter of 2A StopGo recoding; control for the full effect not named in the record | Potency, µM (top dose mostly 57.9 µM), inactives show at the highest dose signal change, negative = less light | actives 1.2% (n = 410,000) | AID 1159524; active = well fitted falling curve with a large enough effect; inconclusive = small, poorly fitted or top-dose-only effect; inactive = no such curve, though single readings can be large or run the other way; tested in HEK293T cells; note: % is set by controls: 0 for no effect and ±100 for the full control effect; nearly all actives have a fitted effect of over 45% in size; luciferase light after 4 h
Cruzain noTriton – cruzain (T. cruzi) inhibition without detergent. purified cruzain, Z-FR-AMC fluorescence, no detergent. actives 2.3% (n = 200,000). P25779. AID 1476. Potency, µM, for inactives: max response, negative = inhibition, actives largely listed as inhibitors; active = well fitted curve in the direction sought with a large enough effect; inconclusive = small, poorly fitted or top-dose-only effect, or another doubt; inactive = no such curve, though single readings can be large; an effect the other way counts as inactive or inconclusive;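 note: plate controls were enzyme without inhibitor for no effect and buffer without enzyme for full effect; nearly all actives have a fitted effect of over 40% in size; top concentration of the series not given in the record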
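Detergent-free condition (0.00005% Triton X-100) in acetate buffer pH 5.5 with DTT. 1.5 nM enzyme and compound were pre-mixed 15 min, then 2 uM Z-FR-AMC substrate added; reaction progress from fluorescence change between first and third reads (60 s).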
* = called active by the depositor; ? = inconclusive; · = not tested or not shown; [ ] = another dose, or the depositor's remark. Unless noted, calls come from the whole dose curve; as a rule, active means well fitted rising curve with a large enough effect; inconclusive means small, poorly fitted or top-dose-only effect; inactive means no such curve, though single readings can be large or run the other way. Potency is the fitted concentration of half-maximal effect.

Every second line gives: LASV entry inh, MARV entry inh, NS1 function inh, Cruzain inh Det, SARS PLpro yeast, RE007 growth inh, StopGo reporter, Cruzain noTriton
COC(=O)c1ccc(CNC(=O)CNC(=O)c2sc3ccccc3c2Cl)cc1
    -2%, -3%[46.1 µM], ·, ·, -4%, -13%, -17%, ·
Cc1ccc(S(=O)(=O)N2CCCCC2)cc1C(=O)Nc1ncn[nH]1
    ·, ·, 1%, 1.0%, 1%, ·, ·, 2%
CCCCC1S/C(=N/N=C/c2cccs2)NC1=O (stereo unspecified)
    ?, ?, -8%, -5.0%, -10%, -29%, 10%, ?
NC(=S)NN=C1CCCC(C(F)(F)F)C1 (stereo unspecified)
    9%, -3%, ·, ·, ·, 5%, -20%, ·
CCOc1cccc(-c2c(C(=O)N/N=C/c3ccco3)nnn2-c2nonc2N)c1
    4%[46.1 µM], 17%[46.1 µM], 16%, ·, -2%, 14%, 14%, ·
COc1ccc(OC)c(NC(=O)c2cc3sccc3n2C)c1
    5%, -3%, -48%, -3.4%, -24%, -11%, 10%, -19%
Fc1cccc(Cl)c1CSc1nnc(CNc2ccccc2)o1
    ·, ·, -37%, ·, 0%, 10%, 25%, ·
O=C(NCc1ccc(Cl)cc1)C(=O)Nc1nccs1
    1%, ?, ·, ·, -1%, 27%, -6%, ·
NS(=O)(=O)c1ccc(CNS(=O)(=O)Cc2ccc(Cl)cc2)cc1
    ·, ·, 6%, ·, 0%, 23%, -22%, ·
CCc1ccc2nc(SCC(=O)N3CC(=O)Nc4ccccc43)c(C#N)cc2c1
    -3%, ?, 10%, -5.1%, 8%, 0%, -15%, -9%
CCOc1ccc(NC(=O)CSc2nnc(NC(=O)Nc3ccccc3)s2)cc1
    10%[46.1 µM], ·, ·, -0.4%, ·, ·, 9%, 14%
CCCCNC(=O)/C(=C/c1ccccc1)NC(C)=O
    -2%, 3%, 9%, 2.1%, 8%, -1%, -7%, -7%
O=C(C1=C[C@@H]2[C@H]3C(=O)N(c4ccccc4Cl)C(=O)[C@H]3[C@@H](C(=O)c3ccc(Cl)cc3)N2C=C1)c1ccccc1
    -3%, 3%, ?, -7.7%, -4%, ·, ·, -24%
COc1cccc(/C=N/NC(=O)c2cccc([N+](=O)[O-])c2)c1OS(=O)(=O)c1ccc(C)cc1
    -8%, 4%, -5%, -1.8%, -10%, 2%, ?, ?
O=c1[nH]c2cc3c(cc2cc1CN(Cc1cccnc1)C(=S)NCc1ccco1)OCCO3
    -4%[46.1 µM], ?, -5%, ·, 2%, -11%, -23%, ·
CC1=C(c2ccc(C)cc2)S(=O)(=O)N(Cc2ccc(C(=O)Nc3ccc(F)cc3C)cc2)C1=O
    ?, ·, ·, 12%, ·, ·, ?, ?
CCOC(=O)c1cnc2cc(-c3ccc(Br)cc3)nn2c1C
    ·, ·, -3%, ·, 4%, -2%, 25%, ·
CCOC(=O)CC(=O)COc1nc2cc3c(nc2o1)CCCC3
    -21%, -17%, 21%, ·, 2%, 3%, 50%[activator], ·
COC(=O)c1cn(NC(=O)c2cnccn2)c(=O)c2ccccc12
    -5%, 4%, -140%, -3.9%, ?, -38%, 8%, -7%
CCOC(=O)Cc1nn(C(C)C)c(=O)c2ccccc12
    1%, 22%[46.1 µM], 2%, ·, -2%, -17%, 6%, ·
N/C(Cc1cccs1)=N\OC(=O)COc1ccc(Br)cc1Cl
    -18%, 7%, -22%, -2.5%, -16%, 2%, 18%, 0%
COc1ccc(Cc2nc3ccccc3n2Cc2ccccc2F)cc1
    -26%[46.1 µM], ?, ·, -8.9%, ·, ·, -28%, -2%
CC(C)C1CC(CCN)(Cc2ccccc2)CCO1 (stereo unspecified)
    0%[46.1 µM], 15µM*, 8%, ·, 0%, -19%, -9%, ·
O=c1oc2ccccc2n1Cc1ccccc1Cl
    ·, ·, -5%, ·, -3%, -15%, -27%, ·
Cc1ccc(Nc2nc(NCCO)nc3c2cnn3C)cc1Cl
    ·, ·, 6%, ·, -3%, 4%, -13%, ·
CCc1ccc(NC(=O)C2CCN(C(=O)[C@@H]3Cc4ccccc4CN3)CC2)cc1
    ?, ·, ?, ·, -13%, -18%, 17%, ·
CC(=O)N(C)c1ccc(N=Nc2c(C)[nH]n(-c3ccccc3)c2=O)cc1
    ·, ·, 3%, ·, -4%, -9%, ?, ·
COc1ccc(S(=O)(=O)NCC(c2ccco2)N2CCc3ccccc32)cc1 (stereo unspecified)
    -23%, ?, ·, ·, ·, 2%, 25%, ·
COC(=O)c1ccsc1NC(=O)CS(=O)(=O)c1ccccc1
    -12%, -8%, ·, ·, -3%, 9%, 8%, ·
Cc1cc(NC(=O)C2CCCC2)n(-c2nc3ccccc3[nH]2)n1
    -10%, -28%, -4%, -8.8%, 4%, -5%, -6%, 3%

Individual results from the entries so far.
Result of CCCCNC(=O)/C(=C/c1ccccc1)NC(C)=O in NS1 function inh: 9%
Result of O=C(C1=C[C@@H]2[C@H]3C(=O)N(c4ccccc4Cl)C(=O)[C@H]3[C@@H](C(=O)c3ccc(Cl)cc3)N2C=C1)c1ccccc1 in SARS PLpro yeast: -4%
Result of CCOc1cccc(-c2c(C(=O)N/N=C/c3ccco3)nnn2-c2nonc2N)c1 in MARV entry inh: 17%[46.1 µM]
Result of COc1cccc(/C=N/NC(=O)c2cccc([N+](=O)[O-])c2)c1OS(=O)(=O)c1ccc(C)cc1 in LASV entry inh: -8%
Result of COc1ccc(S(=O)(=O)NCC(c2ccco2)N2CCc3ccccc32)cc1 (stereo unspecified) in StopGo reporter: 25%
Result of Cc1ccc(S(=O)(=O)N2CCCCC2)cc1C(=O)Nc1ncn[nH]1 in NS1 function inh: 1%

The list continues:
Every second line gives: LASV entry inh, MARV entry inh, NS1 function inh, Cruzain inh Det, SARS PLpro yeast, RE007 growth inh, StopGo reporter, Cruzain noTriton
COc1cc2ccccc2cc1C(=O)Nc1cccc(-c2nc3cc(C)c(C)cc3o2)c1C
    5%[46.1 µM], -1%[46.1 µM], ·, -0.1%, ·, ·, 19%, -7%
Cc1cc(C)n(C(=O)c2cccc(S(=O)(=O)N3CCCC3)c2)n1
    2%, 1%, 1%, -1.0%, -1%, 2%, -17%, 7%
O=C(CSc1nnnn1C1CCCCC1)N1CCOCC1
    12%, 12%, -2%, ·, 1%, 6%, -5%, ·
CC1(C)CN=C(N(C(=O)Nc2ccccc2)c2ccccc2F)S1
    19%, -9%[14.2 µM], 2%, ·, 0%, -6%, 5%, ·
O=C(CCS(=O)CCC(=O)NCc1ccccc1)NCc1ccccc1
    -8%, 3%[46.1 µM], -9%, 8.7%, 7%, -4%, -11%, 4%
Cc1cccc2c(=O)c(C(=O)NCc3ccc(F)cc3)c[nH]c12
    -13%, -9%, 16%, ·, 3%, 6%, -26%, ·
O=Cc1cccc(OCc2cccc3ccccc23)c1
    ?, 9%, -5%, ·, -1%, 0%, 68%[activator], ·
CCN(CC)CCNC(C(=O)Nc1ccc([N+](=O)[O-])cc1Br)c1ccccc1 (stereo unspecified)
    1%, ?, 2%, -2.9%, 18%, -14%, -5%, -9%
CC(=O)N1CC=C2C(C#N)=C(N)C(C#N)(C#N)[C@H](c3ccoc3)[C@H]2C1
    13%, -14%, 5%, 1.4%, 6%, 13%, 4%, -4%
CC1CCN(C(=S)c2ccc([N+](=O)[O-])cc2)CC1
    4%, 13%, 7%, -24%, 0%, -1%, -11%, 5%
COc1ccc(OCC(O)CN2CCN(Cc3ccc4c(c3)OCO4)CC2)cc1 (stereo unspecified)
    6%, 10%, -4%, 1.0%, -4%, 2%, -17%, -4%
Cc1ccsc1C(=O)NNC(=O)c1ccccc1F
    ?, -16%, ·, ·, -4%, -19%, 10%, ·
O=C(N/N=C/c1ccccc1F)C(=O)N1CCCCCC1
    1%[46.1 µM], 19%[46.1 µM], -16%, ·, 1%, -1%, 32%[activator], ·
Cc1cccc(N=Cc2c(O)n(C)c(=O)n(C)c2=O)c1
    13%, 8%, 20%, ·, -4%, -3%, 18%, ·
CS(=O)(=O)c1ccc(-c2cn3cc(C(=O)O)ccc3n2)cc1
    ?, ?, ·, ·, -1%, -2%, ?, ·
Cc1cccc(N(CC(=O)N2CCCCCC2)S(C)(=O)=O)c1
    ·, ·, -3%, ·, 11%, -5%, 11%, ·
COc1ccc(CNS(=O)(=O)c2cn(C)c(=O)n(C)c2=O)cc1
    -2%, 3%, 4%, ·, 2%, 1%, -13%, ·
O=C(NCCc1ccccc1Cl)C1CCN(c2nc3ccccc3nc2C(F)(F)F)CC1
    7%[46.1 µM], ·, ·, 1.9%, ·, ·, -8%, 3%
CN(C(=O)COc1ccccc1C(=O)NCCc1ccccc1)c1ccccc1
    -4%, ?, -8%, 0.5%, -2%, -3%, -5%, -1%
COc1ccc(/C(N)=N/OC(=O)CCCc2ccccc2)cc1
    1%, 17%, -5%, -6.0%, -87%, 7%, 11%, 0%
OC(COc1cccc2ccccc12)CN1CCOCC1 (stereo unspecified)
    16%, -4%, ·, ·, ·, 6%, -9%, ·
CCn1cc([N+](=O)[O-])c(C(=O)Nc2ccc(Cn3nc(C)cc3C)cc2)n1
    ?, ?, -4%, 0.0%, 3%, 6%, -2%, -1%
CN(C)C(=O)COc1ccc2c3c(c(=O)oc2c1)CCCC3
    ·, ·, -10%, ·, 0%, -4%, 29%, ·

Some of these compounds in order of heavy-atom count, high to low:
Every second line gives: LASV entry inh, MARV entry inh, NS1 function inh, Cruzain inh Det, SARS PLpro yeast, RE007 growth inh, StopGo reporter, Cruzain noTriton
O=c1[nH]c2cc3c(cc2cc1CN(Cc1cccnc1)C(=S)NCc1ccco1)OCCO3
    -4%[46.1 µM], ?, -5%, ·, 2%, -11%, -23%, ·
CN(C)C(=O)COc1ccc2c3c(c(=O)oc2c1)CCCC3
    ·, ·, -10%, ·, 0%, -4%, 29%, ·
O=c1oc2ccccc2n1Cc1ccccc1Cl
    ·, ·, -5%, ·, -3%, -15%, -27%, ·

Screening data (PubChem BioAssay)
